Assay outcomes from PubChem BioAssay.
2A StopGo = lowers the luciferase signal of an FMDV 2A StopGo reporter; human cells with a luciferase reporter of 2A StopGo recoding; control for the full effect not named in the record; Potency, µM (highest dose often 57.9 µM), for inactives: top-dose signal change, negative = less light; actives 1.2% (n = 410,000); AID 1159524; active = well fitted falling curve with a large enough effect; inconclusive = small, poorly fitted or top-dose-only effect; inactive = no such curve, though single readings can be large or run the other way; tested in HEK293T cells; also: % is scaled to controls: 0 for no effect and ±100 for the full control effect; nearly all actives have a fitted effect of over 45% in size; luciferase light after 4 h
Lassa entry inh = blocks Lassa virus binding to or entry into cells; Lassa virus pseudotype entry inhibition, cell reporter; control for the full effect not named in the record; Potency, µM (highest dose often 37.9 µM), for the others: top-dose activity change, negative = inhibition, usual class: inhibitors; actives 1.2% (n = 300,000); active means well fitted inhibition curve with a large enough effect; inconclusive means small, poorly fitted or top-dose-only effect, or effect the other way; inactive means flat fitted curve, though single readings scatter; tested in HEK293 cells; also: % is scaled to controls: 0 for no effect and ±100 for the full control effect; nearly all actives have a fitted effect of over 50% in size; luciferase read-out
SARS PLpro yeast = blocks SARS-CoV papain-like protease in a yeast assay | S. cerevisiae expressing SARS-CoV PLpro, growth rescue; control for the full effect not named in the record | Potency, µM (series often up to 32.9 µM), for inactives: at the top dose activity, positive = growth rescue | actives 0.19% (n = 330,000); also: 0% is about no effect; nearly all actives have a fitted effect of over 55% in size; growth read by luminescence after 48 h
NS1 function inh = influenza NS1 inhibition; S. cerevisiae slowed by influenza A NS1, growth recovery by OD600; Potency, µM (titrated, usually from 46.1 µM), inactives show at the highest dose activity, positive = more growth; actives 0.4% (n = 270,000); AID 2326; also: actives are rising curves; nearly all actives have a fitted effect of over 50% in size
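Growth recovery, yeast-based: influenza A NS1 expressed in S. cerevisiae causes slow growth, and suppressors are detected by OD600. The parent strain without NS1 is used as positive control.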
Cruzain noTriton = blocks cruzain activity in detergent-free assay; P25779; purified cruzain, Z-FR-AMC fluorescence, no detergent; Potency, µM, for inactives: max response, negative = inhibition, usual class: inhibitors; actives 2.3% (n = 200,000); active = well fitted curve in the direction sought with a large enough effect; inconclusive = small, poorly fitted or top-dose-only effect, or another doubt; inactive = no such curve, though single readings can be large; an effect the other way counts as inactive or inconclusive;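 also: plate controls were enzyme without inhibitor for no effect and buffer without enzyme for full effect; nearly all actives have a fitted effect of over 40% in size; top concentration of the series not given in the record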
Target sequence (P25779 123-467 limits assumed): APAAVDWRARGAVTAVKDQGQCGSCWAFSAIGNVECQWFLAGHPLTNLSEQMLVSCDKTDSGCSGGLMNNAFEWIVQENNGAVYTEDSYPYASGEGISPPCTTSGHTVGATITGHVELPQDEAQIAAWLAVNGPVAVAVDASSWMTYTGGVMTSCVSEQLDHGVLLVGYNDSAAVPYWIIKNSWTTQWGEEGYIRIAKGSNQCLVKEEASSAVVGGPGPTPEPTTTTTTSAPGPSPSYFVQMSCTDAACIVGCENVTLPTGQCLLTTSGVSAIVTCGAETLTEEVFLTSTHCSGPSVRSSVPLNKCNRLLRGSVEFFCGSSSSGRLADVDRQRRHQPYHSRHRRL
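Purified cruzain at 1.5 nM, pre-incubated 15 min with compound at room temperature in 100 mM sodium acetate pH 5.5, 5 mM DTT, 0.00005% Triton X-100. Reaction started with 2 uM Z-FR-AMC; AMC fluorescence increase over 60 s gives rate.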
RE007 growth inh = less growth of the S. pombe RE007 Vpr strain | S. pombe RE007 Vpr strain, BacTiter-Glo ATP luminescence, 24 h; control for the full effect not named in the record | Potency, µM (top dose mostly 92.2 µM), for inactives: at the top dose activity change, negative = less growth | actives 0.21% (n = 360,000) | AID 651644; active = well fitted falling curve with a large enough effect; inconclusive = small, poorly fitted or top-dose-only effect; inactive = no such curve, though single readings can be large or run the other way;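 also: % is scaled to controls: 0 for no effect and ±100 for the full control effect; nearly all actives have a fitted effect of over 50% in size; the assay follows cell death caused by Vpr and the record does not say whether a fall means rescue or toxicity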
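Fission yeast RE007 carrying one integrated HIV-1 vpr copy, seeded at OD 0.01 in PMG+AL medium with 23 nL pinned compound. Grown 24 h at 30 degrees; viability read by BacTiter-Glo luminescence after 5 min.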
Marburg entry inh = blocks Marburg virus binding to or entry into cells | Potency, µM (top dose mostly 37.8 µM), for inactives: at the highest dose activity change, negative = inhibition, most hits filed as inhibitors | actives 1.8% (n = 300,000) | Marburg virus pseudotyped entry inhibition, cell reporter; control for the full effect not named in the record; about a third of the inactives were read at about 46 µM | AID 540276; active = well fitted inhibition curve with a large enough effect; inconclusive = small, poorly fitted or top-dose-only effect, or effect the other way; inactive = flat fitted curve, though single readings scatter; tested in HEK293 cells; about a fifth of its hits are not listed in these tables; also: % is scaled to controls: 0 for no effect and ±100 for the full control effect; luciferase read-out
Cruzain inh Det = inhibitors of Trypanosoma cruzi cruzain with detergent | purified cruzain, Z-FR-AMC fluorescence, 0.01% Triton | Potency, µM, without a hit: max response, negative = inhibition, most hits filed as inhibitors | actives 0.43% (n = 200,000); active = well fitted curve in the direction sought with a large enough effect; inconclusive = small, poorly fitted or top-dose-only effect, or another doubt; inactive = no such curve, though single readings can be large; an effect the other way counts as inactive or inconclusive;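 also: plate controls were neutral wells for no effect and buffer without enzyme for full effect; nearly all actives have a fitted effect of over 40% in size; top concentration of the series not given in the record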
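Sodium acetate buffer (100 mM, pH 5.5) containing 5 mM DTT and 0.01% Triton X-100 hosted 1.5 nM cruzain and test compound for 15 min at room temperature. Cleavage of 2 uM Z-FR-AMC was then tracked by fluorescence.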
Numbers without * were called inactive; [ ] = remark or other dose. Unless noted, calls follow the shape of the dose curve; as a rule, active means well fitted rising curve with a large enough effect; inconclusive means small, poorly fitted or top-dose-only effect; inactive means no such curve, though single readings can be large or run the other way. Potency is read from the fitted curve at half-maximal effect.

Screening N#CCC(=O)Nc1ccc(C(=O)OC(C(=O)Nc2cc(C(F)(F)F)ccc2Cl)c2ccccc2)cc1 (stereo not drawn) returned 2A StopGo inconclusive, Lassa entry inh -3.6%[46.1 µM], SARS PLpro yeast -11.6%, RE007 growth inh 2.6% and Marburg entry inh inconclusive.
Screening Cc1ccc(C)c(Cn2cnc3c(oc4ccccc43)c2=O)c1 returned 2A StopGo 7.6%, Lassa entry inh -3.3%[46.1 µM], SARS PLpro yeast 0.4%, RE007 growth inh 10.0% and Marburg entry inh 10.6%[46.1 µM].
C/C(=C\c1ccco1)C1C(C#N)=C(N)OC2=C1C(=O)CC(C)(C)C2 (stereo not drawn) was read as 2A StopGo -22.9%, Lassa entry inh -16.4%, SARS PLpro yeast 1.9%, NS1 function inh 1.2%, Cruzain noTriton -5.3%, RE007 growth inh 2.3%, Marburg entry inh 0.0% and Cruzain inh Det -13.0%.
Screening CCCOc1ccc(C2(C(=O)O)CCCC2)cc1 returned 2A StopGo 4.6%, Lassa entry inh 22.8%, SARS PLpro yeast -1.9%, NS1 function inh -29.0%, Cruzain noTriton -14.8%, RE007 growth inh 8.6%, Marburg entry inh -11.5% and Cruzain inh Det 0.4%.
`CCOC(=O)c1cc2cc(OCc3ccccc3)ccc2nc1C` gave 2A StopGo -9.8%, SARS PLpro yeast -1.2%, NS1 function inh -13.8% and RE007 growth inh -22.6%.
For COCCN(C(=O)Cn1c(C(F)(F)F)nc2ccccc21)c1c(N)n(Cc2ccccc2)c(=O)[nH]c1=O the results were 2A StopGo -13.4%, Lassa entry inh 5.6%, SARS PLpro yeast 11.0%, NS1 function inh -2.8%, RE007 growth inh -14.1% and Marburg entry inh 4.3%.
For OC(COCc1ccccc1F)CN1CCCCC1 (stereo not drawn) the results were 2A StopGo -20.7%, Lassa entry inh 9.1%[46.1 µM], RE007 growth inh 1.4% and Marburg entry inh -19.5%[46.1 µM].
CCN(CC)C(=O)C(C)N(C#N)c1nc(C)cc(C)n1 (stereo not drawn) was read as 2A StopGo -4.1%, Lassa entry inh 2.8%, SARS PLpro yeast 4.7%, NS1 function inh 0.4%, Cruzain noTriton -1.0%, RE007 growth inh 24.5%, Marburg entry inh 0.0% and Cruzain inh Det -0.2%.
CC(=O)N1c2ccc(S(=O)(=O)N3CCCC(C(=O)N4CCC(C)CC4)C3)cc2CC1C (stereo not drawn) was read as 2A StopGo inconclusive, SARS PLpro yeast 3.6%, NS1 function inh -28.5% and RE007 growth inh -2.7%.
Screening COc1ccc(S(=O)(=O)N(C)CC(=O)NCc2ccco2)cc1OC returned 2A StopGo -3.0%, Lassa entry inh -17.0%[46.1 µM], SARS PLpro yeast 0.7%, NS1 function inh 3.0%, RE007 growth inh 1.5% and Marburg entry inh 1.2%[46.1 µM].
For COc1ccc(C2CC(c3ccccc3)n3nnnc3N2)cc1 (stereo not drawn) the results were 2A StopGo 13.5%, Lassa entry inh -8.9%, SARS PLpro yeast -4.8%, NS1 function inh -2.2%, Cruzain noTriton 6.6%, RE007 growth inh -3.7%, Marburg entry inh -2.2% and Cruzain inh Det -1.5%.
For O=C(CCN1C(=O)C2C3C=CC(C3)C2C1=O)N1CCN(c2ccc(F)cc2)CC1 (stereo not drawn) the results were 2A StopGo -2.2%, Lassa entry inh 0.7%, SARS PLpro yeast 0.3%, NS1 function inh -0.4%, Cruzain noTriton 6.6%, RE007 growth inh 8.1%, Marburg entry inh 4.3% and Cruzain inh Det 3.5%.
Screening Cc1ccc(S(=O)(=O)N(CC(=O)N2CCOCC2)c2ccc(C(C)C)cc2)cc1 returned 2A StopGo 53.3%[activator], Lassa entry inh inconclusive, SARS PLpro yeast -3.2%, NS1 function inh -18.2%, RE007 growth inh 7.9% and Marburg entry inh -5.4%.
Screening COc1cc(CNc2ncn[nH]2)ccc1OCc1ccccc1C returned 2A StopGo 16.7%, Lassa entry inh -5.9%[46.1 µM], SARS PLpro yeast -0.4%, NS1 function inh 2.2%, RE007 growth inh 4.7% and Marburg entry inh 15.1%[46.1 µM].
`COc1ccc(N(Cc2ccccc2)C(=O)c2ccccc2[N+](=O)[O-])cc1` gave 2A StopGo -20.7%, Lassa entry inh inconclusive, SARS PLpro yeast -16.5%, NS1 function inh -3.7%, Cruzain noTriton -4.7%, RE007 growth inh -7.7%, Marburg entry inh inconclusive and Cruzain inh Det -2.4%.
Screening c1cncc(-c2nc3ccccn3c2Nc2ccc3c(c2)OCCO3)c1 returned 2A StopGo -4.3%, SARS PLpro yeast -3.7%, NS1 function inh -43.5%, Cruzain noTriton -11.9%, RE007 growth inh 9.2% and Cruzain inh Det 1.7%.
Screening COC(=O)C1=CN(c2ccc(F)cc2)C=C(C(=O)OC)C1c1ccc([N+](=O)[O-])cc1 returned 2A StopGo -19.7%, Lassa entry inh inconclusive, SARS PLpro yeast -0.8%, NS1 function inh 12.8%, RE007 growth inh 9.9% and Marburg entry inh inconclusive.
`CN1C(=O)c2ccc(C(=O)NCc3ccco3)cc2C1=O` gave 2A StopGo -17.7%, SARS PLpro yeast 0.7%, NS1 function inh 8.8% and RE007 growth inh -2.4%.
For COc1ccc(N2CCN(CCCNS(=O)(=O)c3ccc4c(c3)oc(=O)n4C)CC2)cc1 the results were 2A StopGo -0.2%, SARS PLpro yeast 7.8%, NS1 function inh 8.0%, Cruzain noTriton 0.4%, RE007 growth inh -16.1% and Cruzain inh Det -0.2%.
Cc1c(C)c2cc(Cl)c(OCC(=O)NCCCn3ccnc3)cc2oc1=O was read as 2A StopGo -18.0%, SARS PLpro yeast inconclusive, NS1 function inh 1.6% and RE007 growth inh -19.5%.
O=S(=O)(NCc1c(Cl)cccc1Oc1ccccc1)c1ccc(F)cc1 was read as 2A StopGo -11.6%, SARS PLpro yeast -3.9%, NS1 function inh -34.9% and RE007 growth inh 26.3%.
Nc1nc(CN2CCN(c3ccccn3)CC2)nc(Nc2ccc(F)cc2)n1 was read as 2A StopGo inconclusive, Lassa entry inh inconclusive, SARS PLpro yeast 2.7%, NS1 function inh inconclusive, Cruzain noTriton 8.8%, RE007 growth inh -0.1%, Marburg entry inh 2.59µM* and Cruzain inh Det -3.3%.
CCOc1ccc(C(N)=O)cc1OC was read as 2A StopGo -6.5%, Lassa entry inh -0.6%, SARS PLpro yeast 3.5%, NS1 function inh 7.6%, Cruzain noTriton -2.2%, RE007 growth inh 1.4%, Marburg entry inh inconclusive and Cruzain inh Det 6.1%.
`CC1CCCCN1C(=O)CSc1ccc(-c2ccc(F)cc2)nn1` (stereo not drawn) gave 2A StopGo 9.3%, Lassa entry inh 15.3%, SARS PLpro yeast -4.8%, NS1 function inh -11.6%, Cruzain noTriton -5.7%, RE007 growth inh -1.4%, Marburg entry inh -18.9% and Cruzain inh Det -2.8%.
Screening O=C(CCCN1C(=O)/C(=C\c2ccccc2)SC1=S)Nc1ccc(O)cc1 returned 2A StopGo -24.4%, Lassa entry inh inconclusive, SARS PLpro yeast -0.6%, NS1 function inh -5.5%, RE007 growth inh 4.6% and Marburg entry inh inconclusive.
COc1cccc(C(=O)NC(C)CCc2ccccc2)c1 (stereo not drawn) was read as 2A StopGo -4.5%, SARS PLpro yeast -6.2%, NS1 function inh -10.7% and RE007 growth inh 7.1%.
CCCCn1c(N)c(N(CC(C)C)C(=O)CN2C(=O)NC3(CC(C)CC(C)(C)C3)C2=O)c(=O)[nH]c1=O (stereo not drawn) was read as 2A StopGo -18.3%, Lassa entry inh -6.4%, SARS PLpro yeast 3.2%, RE007 growth inh -24.2% and Marburg entry inh 13.8%.
For CCC(C)(C)NC(=O)C(c1ccco1)N(C(=O)CNC(=O)c1cccs1)c1cccnc1 (stereo not drawn) the results were 2A StopGo 0.0%, Lassa entry inh inconclusive, SARS PLpro yeast 16.8%, NS1 function inh 1.1%, Cruzain noTriton -8.0%, RE007 growth inh 2.3%, Marburg entry inh inconclusive and Cruzain inh Det 0.7%.
`Cc1ccc(-n2ncc3c(N4CCC(C(N)=O)CC4)ncnc32)cc1` gave 2A StopGo 38.4%[activator], Cruzain noTriton 17.2% and Cruzain inh Det 0.4%.
Screening N#CCSc1nc2scc(-c3cccs3)c2c(=O)n1CCc1ccccc1 returned 2A StopGo -1.8%, Lassa entry inh -27.1%, SARS PLpro yeast 0.8%, NS1 function inh 15.3%, Cruzain noTriton 15.8µM*, RE007 growth inh -1.8%, Marburg entry inh -20.3% and Cruzain inh Det 6.6%.
`CC(C)CN(CC(C)C)c1nn[nH]n1` gave 2A StopGo -4.0%, Lassa entry inh 0.0%[46.1 µM], RE007 growth inh 9.3% and Marburg entry inh 11.5%[46.1 µM].
Cc1ccc(CC2SC(=O)NC2=O)cc1Cl (stereo not drawn) was read as 2A StopGo 1.4%, Lassa entry inh -4.1%, SARS PLpro yeast 0.6%, NS1 function inh -7.0%, Cruzain noTriton -4.0%, RE007 growth inh 23.9%, Marburg entry inh 10.6% and Cruzain inh Det -3.3%.
For CCOc1ccc(-c2nnc3sc(COc4ccc(Cl)cc4)nn23)cc1 the results were 2A StopGo -21.3%, Lassa entry inh -23.3%, SARS PLpro yeast 10.0%, NS1 function inh 4.3%, Cruzain noTriton inconclusive, RE007 growth inh 6.5%, Marburg entry inh -0.9%[46.1 µM] and Cruzain inh Det 2.9%.
Screening COC(=O)CNC(c1ccccc1)c1cc(C)ccc1NC(=O)c1cccc(Cl)c1 (stereo not drawn) returned 2A StopGo -30.1%, Lassa entry inh inconclusive, SARS PLpro yeast inconclusive, NS1 function inh -37.2%, Cruzain noTriton -7.1%, RE007 growth inh -11.9%, Marburg entry inh inconclusive and Cruzain inh Det -7.1%.
Screening COc1ccc2ccccc2c1/C=N\NC(=O)c1cccnc1 returned 2A StopGo 7.6%, Lassa entry inh inconclusive, RE007 growth inh 17.5% and Marburg entry inh -3.1%[46.1 µM].
CC(=O)Nc1c2c(nn1-c1cccc(Cl)c1)CS(=O)C2 (stereo not drawn) was read as 2A StopGo -8.9%, SARS PLpro yeast 13.9%, NS1 function inh 9.5%, Cruzain noTriton -0.7%, RE007 growth inh -2.1% and Cruzain inh Det 3.8%.
COC(=O)c1oc2ccc(Cl)cc2c1-n1cccc1 was read as 2A StopGo -18.6%, Lassa entry inh -3.2%, SARS PLpro yeast -12.7%, NS1 function inh -13.6%, Cruzain noTriton -3.5%, RE007 growth inh -10.2%, Marburg entry inh 18.8% and Cruzain inh Det -2.2%.
For COc1ccc(S(=O)(=O)N2CCN(C(=S)Nc3ccc(S(N)(=O)=O)cc3)CC2)cc1 the results were 2A StopGo -11.5%, Lassa entry inh 7.0%, SARS PLpro yeast -0.9%, NS1 function inh -16.5%, RE007 growth inh -12.3% and Marburg entry inh -2.2%.

The order is random, and some 4.6% of all compounds hit somewhere here.
